FGF22 binding – binders of recombinant human FGF22 by thermal shift | SYPRO orange fluorescence; percent of sucrose octasulfate shift, DMSO zero | actives 1.5% (n = 340,000) | Q9HCT0 | calls only at 9.99 µM;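 active = melting point raised past a set limit in the mean and every replicate; inconclusive = no clear call; three in four hits are not shown here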
Target sequence (Q9HCT0 whole entry, looked up): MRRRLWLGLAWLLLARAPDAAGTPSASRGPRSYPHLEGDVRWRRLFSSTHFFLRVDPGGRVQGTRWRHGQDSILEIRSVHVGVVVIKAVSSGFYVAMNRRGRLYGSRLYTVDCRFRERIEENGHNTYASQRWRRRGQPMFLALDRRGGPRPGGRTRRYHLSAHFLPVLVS
ALR inh – blocks human ALR sulfhydryl oxidase activity; P55789; purified ALR, DTT oxidation, H2O2 HRP-luminol luminescence; inhibition, % (no concentration beside the values); actives 3.8% (n = 290,000); AID 485317;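 active = mean and each replicate at 75% or more; inconclusive = only one of the two met; inactive = neither met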;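 also: stock transfer was 7.5 nL into about 7.5 µL; 0% = neutral wells and 100% = wells with inactivated enzyme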
Target sequence (P55789 whole entry, looked up): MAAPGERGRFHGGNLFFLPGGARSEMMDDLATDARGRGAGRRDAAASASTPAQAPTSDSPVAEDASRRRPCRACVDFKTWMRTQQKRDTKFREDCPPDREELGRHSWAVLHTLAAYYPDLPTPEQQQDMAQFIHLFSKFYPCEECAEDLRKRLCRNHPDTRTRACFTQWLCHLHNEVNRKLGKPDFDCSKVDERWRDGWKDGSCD
Calb FLC – affects C. albicans growth with fluconazole; C. albicans CaCi-2 (fluconazole-resistant clinical isolate) + fluconazole, Alamar Blue growth, 48 h; growth inhibition, % (concentration not given with the values); actives 0.57% (n = 300,000); AID 1979;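 active = most replicates above 75%; inconclusive = exactly half above 75%; inactive = most below 75%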;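 also: all wells also contain fluconazole at 8 µg/ml as a sub-toxic cotreatment; 0% = median of DMSO wells and 100% = median of geldanamycin control wells; wells of about 8 µL received 7.5 nL stock; the first replicate is given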
rRNA inh HTS – inhibitors of bacterial rRNA selective over humanized ribosomes. E. coli WT GFP vs humanized-ribosome RFP mutants, fluorescence, 24 h; stronger effect = lower value; DMSO median 0, no signal -100. GFP signal change (wild-type ribosome), % (concentration not given with the values). actives 1.6% (n = 350,000). AID 720706;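 active = significant combined selectivity score with lowered wild-type GFP, culture density cut under 30%, mutant RFP and density less affected; inactive = any of these conditions unmet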; also: one replicate is shown; some compounds called inactive have numbers as strong as hits
RanGTP-Impb inh – disruptors of Ran-importin-beta complex formation – biochemical, FRET, CFP-Ran, YFP-importin-beta, homogeneous, primary screen; cell-free CFP-Ran/YFP-importin-beta FRET ratio; inhibition, % (no concentration beside the values); actives 1.1% (n = 300,000); AID 2216;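 active = most replicates above 15%; inconclusive = exactly half above 15%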;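 also: 0% = DMSO wells and 100% = Ran loaded with GDP instead of GTP; wells of about 40 µL received 100 nL stock; the first replicate is given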
AF4-AF9 inh – MLL-AF4/AF9 protein interaction inhibition. AlphaScreen, biotin-AF4 peptide binding to FLAG-AF9. inhibition, % at 10 µM. actives 0.47% (n = 350,000). AID 651704;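 active = every replicate reaching a set inhibition limit, whatever the replicate mean, cut at about 25% in these data; inconclusive = mean inhibition reaches that limit but some replicates miss it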;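 also: 0% = plate neutral control median and 100% = total signal loss; the record names both 10 and 1 µM as test concentration; the first replicate is given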
Target sequence (P42568 whole entry, looked up): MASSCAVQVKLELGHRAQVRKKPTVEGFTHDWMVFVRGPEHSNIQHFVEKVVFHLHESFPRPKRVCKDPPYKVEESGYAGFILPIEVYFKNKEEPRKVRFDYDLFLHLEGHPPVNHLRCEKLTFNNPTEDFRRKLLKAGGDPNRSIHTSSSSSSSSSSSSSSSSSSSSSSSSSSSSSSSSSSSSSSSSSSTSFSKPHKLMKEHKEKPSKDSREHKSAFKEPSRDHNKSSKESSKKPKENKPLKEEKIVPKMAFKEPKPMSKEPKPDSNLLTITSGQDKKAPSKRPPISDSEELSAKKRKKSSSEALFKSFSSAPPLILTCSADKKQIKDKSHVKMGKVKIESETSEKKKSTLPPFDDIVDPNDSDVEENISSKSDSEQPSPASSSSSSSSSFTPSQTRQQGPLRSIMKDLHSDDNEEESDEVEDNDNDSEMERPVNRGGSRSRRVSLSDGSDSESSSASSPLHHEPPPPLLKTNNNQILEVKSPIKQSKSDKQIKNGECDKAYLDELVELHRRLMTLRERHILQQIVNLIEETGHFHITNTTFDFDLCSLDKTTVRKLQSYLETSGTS
T cruzi repl – T. cruzi replication inhibition. T. cruzi beta-gal in NIH3T3, luminescence, 90 h. AID 1885. actives 1.4% (n = 300,000). inhibition, % (concentration not given with the values);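 active = mean inhibition across valid replicates above about 55%, limit read from the data; inconclusive = mean below that limit but half or more replicates reach it; inactive = mean below it, under half of replicates reach it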;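 also: signal also drops with host cell toxicity which is not excluded here; 0% = plate median of DMSO wells and 100% = zero luminescence signal; higher percent means less beta-gal luminescence so fewer parasites; stock transfer was 50 nL into about 50 µL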
Beta cell apopt – blocks beta cell apoptosis; INS-1E cytokine-induced death, ATP luminescence, 48 h; percent of positive-control rescue, neutral wells zero; protection from apoptosis, % (no concentration beside the values); actives 0.8% (n = 300,000);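 active = all replicates at 75% or more, or half of them and the mean; inconclusive = half reach 75% but not the mean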;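 also: 0% = cytokine-treated negative control wells and 100% = positive control rescue; higher means more ATP so stronger rescue from cytokine killing; wells of about 40 µL received 100 nL stock; the first replicate is given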
rRNA inh HTS OD600 – second read-out of rRNA inh HTS, no call of its own (marks repeat the call); OD600 change, %; measured here: OD600 growth;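 optical density of the mix in the first replicate; 0 = DMSO median and -100 = no signal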
rRNA inh HTS RFP – second read-out of rRNA inh HTS, no call of its own (marks repeat the call); RFP signal change, %; measured here: RFP humanized mutant strains;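 first replicate; 0 = DMSO median and -100 = no signal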
* = called active by the depositor; i = inactive; ? = inconclusive; . = not tested or not shown; & = joins results of further samples. The list is partial; count on the stated rates, not on these rows.

Fields: FGF22 binding, ALR inh, Calb FLC, rRNA inh HTS, rRNA inh HTS OD600, rRNA inh HTS RFP, RanGTP-Impb inh, AF4-AF9 inh, T cruzi repl, Beta cell apopt
#1 CCC1CCC2(CC1)NC(=O)N(CC(=O)NCc1ccccc1Cl)C2=O (centres undefined)
  ., -3, ., 6, -3, 1.1, ., -2.7, ., -1
#2 OC(COCc1cccs1)CN1CCN(c2ccccc2Cl)CC1 (centres undefined)
  ., 0, -13, ., ., ., ?, ., -12, -6
#3 CCc1nnc(NC(=O)CCN2C(=O)C3CCCCC3C2=O)s1 (centres undefined)
  i, 3, 3, 5, 5, 1.4, -1.2, -0.7, -15, .
#4 COc1ccc(NC(=O)c2ccc(-n3nc(C)c[n+]3[O-])cc2)cc1
  ., ., 31, ., ., ., -4.9, ., -8, -17
#5 COc1ccccc1C(=O)n1nc(-c2ccccc2)nc1N
  ., 1, 2, ., ., ., ?, ., -2, 3
#6 CCC1Oc2nc(SC)nnc2-c2ccccc2N1C(=O)c1ccccc1 (centres undefined)
  ., -4, 2, ., ., ., -3.8, ., 8, 2
#7 COc1ccc(Cn2cnc3c(NS(C)(=O)=O)c(C)c(C)cc32)cc1
  ., -15, 12, ., ., ., 0.6, ., 16, -6
#8 COc1ccc(CCNC(=S)NCc2ccc(Cl)c(Cl)c2)cc1OC
  i, -13, -5, -61, -81, -17, -1.2, 0.5, 60*, -1
#9 CC(C)(C=O)C1=CC(=O)c2ccccc2C1=O
  i, 96*, ., -3, -7, 1.9, ., 6.1, ., -5
#10 Cc1oc2ccc(OCc3ccc(Cl)cc3)cc2c1C(=O)O
  i, ., 31, -21, 5, 15, 1.2, 3.3, -27, -2
#11 O=C(COC(=O)c1ccc(Cl)c(Cl)c1)Nc1cccnc1Cl
  ., ., 2, ., ., ., 2.0, ., -18, 2
#12 CCC(Oc1ccccc1)C(=O)Nc1ccsc1C(=O)OC (centres undefined)
  ., 10, -9, ., ., ., ?, ., -1, -1
#13 COc1ccc(Oc2ncnc3sccc23)cc1
  i, 7, -33, -6, 2, -0.2, -1.0, -0.4, -16, -10
#14 O=C(c1ccco1)N1CCN(C(=O)C2CCCc3c2[nH]c2ccc(Cl)cc32)CC1 (centres undefined)
  ., 35, -1, ., ., ., -8.6, ., -2, 7
#15 O=C(N/C(=C\c1ccc(O)cc1)C(=O)N1CCCCC1)c1ccccc1
  i, 99*, 7, -2, 1, -3.0, -1.6, 0.6, -8, 2
#16 Cc1nc2cc(C(=O)OCC(=O)NC(C)C(C)C)ccc2n1-c1ccccc1 (centres undefined)
  ., -1, -2, ., ., ., -0.7, ., 3, -3
#17 COC(=O)C1(C(=O)OC)NOC2C(=O)N(c3ccccc3)C(=O)C21 (centres undefined)
  ., 39, 33, ., ., ., 0.1, ., -21, -6
#18 Cc1ccc(Nc2nc(N)nc(CSC(=S)N3CCOCC3)n2)cc1
  ., ?, 32, ., ., ., -3.4, ., 2, -4
#19 COc1ccccc1CC(NC(C)=O)C(=O)N1CCN(C(=O)Nc2ccccc2Cl)CC1 (centres undefined)
  i, 5, 3, 5, 3, -6.9, 0.9, -30, -12, -11
#20 CC(C)Oc1cccc(-c2cc(C(=O)NN3CCOCC3)c3ccccc3n2)c1
  i, -11, 2, 2, -3, 0.8, 4.6, 1.0, 2, 3
#21 O=C(c1cn(-c2ccccc2)nc1-c1ccc(Cl)cc1)N1CCOCC1
  i, 2, -1, -22, -22, -4.2, 11, -2.6, 2, 0
#22 CC#CCCCC(=O)Nc1cccc(C(=O)O)c1
  ., 90*, 6, ., ., ., -1.3, ., -6, -4
#23 Cc1cc(C)cc(OCC(=O)Nc2ccc3c4c(cccc24)CC3)c1
  ., ., -5, ., ., ., 0.2, ., -15, 5
#24 O=C(NCCn1c(-c2ccncc2)nc2ccccc21)[C@H]1CCCN1c1nc(CN2CCCCC2)cs1
  i, -29, -16, 4, 6, 11, 4.5, 0.0, -23, -1
#25 COc1ccc(Cn2c(O)c(C=Nc3ccc(O)cc3)c3ccccc3c2=O)cc1
  ., -27, -15, ., ., ., 30*, ., 27, 1
#26 COc1ccc(CCN2CC(C(=O)Nc3cc(F)ccc3F)CC2=O)cc1OC (centres undefined)
  i, -1, -1, -2, 14, -1.2, -2.0, -1.5, 5, -1
#27 Clc1cccc(Cl)c1Cn1ccc(C2CC2)n1
  ., -13, -2, 6, -5, -3.3, -2.3, -0.1, -14, -16
#28 Cc1nn(C)c(C)c1NC(=O)COc1ccc(Cl)cc1
  i, ., ., 5, 12, -1.1, ., 4.2, ., -3
#29 O=C(Nc1cccc(Cl)c1)c1ccc(S(=O)(=O)NCC2CCCO2)cc1 (centres undefined)
  i, 1, -6, -21*, -9.0*, -5.1*, 0.5, -2.4, -3, 4
#30 COc1ccc(N2CCN(C(=S)Nc3ccc(F)cc3)CC2)cc1
  i, 1, 3, 13, 13, 0.9, -1.4, 3.2, -11, .
#31 CC(=O)Nc1ccc2c(c1)ncn2-c1ccc(C)cc1
  i, ., -5, 4, 9, 0.3, ., -11, ., 2
#32 CCc1n[nH]c(=S)n1/N=C/c1c(C)nn(-c2ccccc2)c1Cl
  i, -1, 33, 8, -8, -1.7, -0.6, 2.6, -6, .
#33 Cc1[nH]c(=O)[nH]c(=O)c1S(=O)(=O)NCCOC12CC3CC(CC(C3)C1)C2
  ., 4, ?, ., ., ., -1.2, ., -11, -1
#34 O=C(COC(=O)c1cn(-c2ccccc2)nc1-c1ccccc1)Nc1ncc(Cl)cc1Cl
  i, -6, 1, 17, 16, -2.6, 1.0, 0.3, -7, 3
#35 O=C(/C=C/c1ccc(Br)o1)NC(c1ccccc1)c1ccccc1
  i, 2, 4, -14, -14, -9.6, -2.1, 5.0, 50, -5
#36 Nc1nn(-c2cccc(F)n2)cc1-c1ccccc1
  i, ., -24, 0, 1, -2.9, 9.9, -0.4, -3, .
#37 O=C(c1ccc(OCCN2CCCCC2)cc1)c1c(-c2ccc(O)cc2)sc2cc(O)ccc12
  i, 91*, ., -43, -53, 0.2, 4.2, 1.9&9.9, 31, -2&-1
#38 Cc1nnc(SCC(=O)N2CCC(Cc3ccccc3)CC2)n(N)c1=O
  ., -3, 1, ., ., ., 6.0, ., 14, -5
#39 CCc1nc(Cl)c(C#N)c2c1CSC(C)(C)C2
  i, -1, 10, 6, 4, 3.6, 6.1, 1.2, -5, 2
#40 CCc1ccc2[nH]c3nc(SCC(=O)NCC4CCCO4)nnc3c2c1 (centres undefined)
  i, ., 2, 0, 4, -0.9, -4.5, -2.0, -4, .
#41 COC(=O)CCC(=O)N1CCCC(CO)(Cc2ccccc2F)C1 (centres undefined)
  i, -4, 5, 11, 1, 0.0, -0.1, 6.0, 1, 3
#42 CCN(CC)C(=O)CSc1nc2sc(C)c(C)c2c(=O)[nH]1
  ., 4, 19, ., ., ., ?, ., 4, -2
#43 CCOC(=O)CC1COCCN1C(=O)c1cc(COc2ccc(F)cc2Cl)on1 (centres undefined)
  i, -2, -3, -18, -15, -2.1, 1.9, -0.4, 11, -2
#44 Cc1cccc(Cl)c1OCCCCn1ccnc1
  ., -3, -33, ., ., ., 2.9, ., 66*, -2
#45 S=C(NCCCNC(=S)Nc1ccccc1)Nc1ccccc1
  ., -9, 0, ., ., ., -0.3, ., 0, -4
#46 COc1ccc(CC(C)N2CCN(c3cccc(C(F)(F)F)c3)CC2)cc1OC (centres undefined)
  ., -4, -31, ., ., ., -0.4, ., ?, -1
#47 COc1ccc(N(C(=O)CNC(=O)c2ccco2)C(C(=O)NC2CCCC2)c2cccnc2)cc1 (centres undefined)
  i, 8, 23, 3, 15, -0.2, 1.5, -1.3, 3, -5
#48 O=c1c(-c2ccccc2)coc2cc(O)ccc12
  i, 0, -17, ., ., ., -0.9, 11, 6, 0
#49 CCC1CCCCN1CCCNC(=O)c1ccc2c(c1)N(Cc1ccc(F)cc1)C(=O)c1ccccc1S2=O (centres undefined)
  i, -3, 6, -3, -15, 18, 2.5, 9.3, 31, -1
#50 CC1(C)Oc2ccc3ccc(=O)oc3c2/C(=C/NCCN/C=C2\C(=O)C(C)(C)Oc3ccc4ccc(=O)oc4c32)C1=O
  ., ., -11, ., ., ., -1.2, ., 34, 19
#51 C=CCNC(=O)C1CCN(S(C)(=O)=O)CC1
  ., -3, -3, ., ., ., 2.2, ., 1, -5
#52 Cc1cccc(NC(=O)c2ccc(S(=O)(=O)N(C)C)cc2)n1
  ., -12, 4, ., ., ., -0.6, ., ., -5
#53 O=S(=O)(NCc1csc(-c2cccnc2)n1)c1ccc(Cl)s1
  i, 4, 2, 7, -21, -4.3, 3.7, -9.8, 30, 2
#54 OC(COc1ccc(F)cc1Cl)CN1CCc2ccccc2C1 (centres undefined)
  i, ., -9, 2, 0, 0.8, -3.1, 2.9, 16, -4
#55 Cc1cc(=O)cc(C)n1-c1ccccc1N1CCOCC1
  ., -6, -9, ., ., ., -0.5, ., -5, -2
#56 Cc1ccc(Nc2nc(N)nc(CCl)n2)c(C)c1
  i, 14, -7, -9, 1, -1.2, -2.2, ., 57*, -3
#57 N/C(=N\OC(=O)c1ccc(Cl)cc1Cl)c1ccncc1
  i, -20, 1, ., ., ., -0.7, 2.0, -5, -5
#58 Cc1ccc(C(=O)O/N=C2\CC3CCC2(C)C3(C)C)cc1 (centres undefined)
  ., -19, 4, ., ., ., 1.3, ., -13, -6
#59 O=C(Cc1ccccc1[N+](=O)[O-])N1CCc2ccccc2C1
  i, -2, -4, -2, -3, -1.8, -1.3, 3.0, -26, -27
#60 COc1cccc(N2CCN(C3CC(=O)N(c4cccc(Cl)c4)C3=O)CC2)c1 (centres undefined)
  ., 46, 1, ., ., ., 5.8, ., -18, -6

Going on with the list:
Fields: FGF22 binding, ALR inh, Calb FLC, rRNA inh HTS, rRNA inh HTS OD600, rRNA inh HTS RFP, RanGTP-Impb inh, AF4-AF9 inh, T cruzi repl, Beta cell apopt
#61 COC(=O)c1ccc(CSc2nc(-c3ccco3)cc(C(F)(F)F)n2)o1
  ., 4, -1, ., ., ., ?, ., -9, -2
#62 COc1ccc(N2C(=O)CC(NNC(=O)c3ccco3)C2=O)cc1 (centres undefined)
  i, 4, 4, 9, 20, 1.5, 2.6, -1.4, -10, 0
#63 CSCCC(NC(=O)c1ccccc1)C(=O)NCC(C)(C)N1CCOCC1 (centres undefined)
  i, -4, ., 8, 5, -2.5, ., -1.2, ., -7
#64 C=CCC(C(=O)NC(C)c1ccccc1)C(=O)NC(C)c1ccccc1 (centres undefined)
  i, -17, -6, 0, -4, -2.3, 3.8, 1.8, -14, -3
#65 CCOc1ccc(N(CC(=O)Nc2cccnc2)S(C)(=O)=O)cc1
  i, -1, -9, 5, 1, -2.0, -2.6, 0.9, 0, -5
